Prx2 Sm inh: inhibitors of Schistosoma mansoni peroxiredoxin 2 | S. mansoni Prx2 activity coupled to TGR/GSH (TGR is thioredoxin glutathione reductase), NADPH fluorescence loss, qHTS; some inactives read as strong as hits | Potency, µM | 0.07% of 65,000 active; active means full or partial inhibition curve with a strong effect at the top dose; inconclusive means weaker partial or single-point curve; inactive means no accepted curve; note: series up to 57 µM; many of its hits are not listed in these tables
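Prx2 inhibition was measured as reduced NADPH consumption when electrons flowed from NADPH through TGR and glutathione to Prx2 and H2O2. Plates were read kinetically over 8 min; enzyme reagents were held at 4 deg C during dispensing.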
Anthrax LT inh: anthrax lethal toxin internalization inhibition. Cells, anthrax lethal toxin internalization, FRET ratio (460/530). Potency, µM (series often up to 40 µM), for the others: at the top dose activity change, negative = inhibition, usual class: inhibitors. 0.67% of 70,000 active. AID 912; active = well fitted falling ratio curve with the 530 nm signal flat; inconclusive = other ratio curves, or a change in one channel alone; inactive = flat curves in the ratio and both channels; the % refers to the ratio; note: % is set by controls: 0 for no effect and ±100 for the full control effect; nearly all actives have a fitted effect of over 50% in size; tested in ME-180 cells; beta-lactamase reporter
* marks the source's active call; other numbers are inactive results; ? = inconclusive; · = no result given; [ ] = another dose, or the depositor's remark. Potency is the fitted concentration of half-maximal effect. An excerpt; the hit share may differ from the screen's.

Structure,Prx2 Sm inh,Anthrax LT inh
COc1ccc(OC)c(S(=O)(=O)Nc2ccc(O)c(Sc3ncn[nH]3)c2)c1,>57,5.0%
CCOC(=O)c1cnc(SCC(=O)NCc2cccs2)nc1N,>57,?
COc1ccc(OC)c(N2C(=O)NC(=O)C(CCc3ccncc3)(CCc3ccncc3)C2=O)c1,·,0.3%
CC(C)Cn1c(N)c(C(=O)NCCN2CCOCC2)c2nc3ccccc3nc21,>57,?
COCC(=O)N1CCC2(CCCN(c3ncccn3)C2)CC1,>11.4,-2.0%
CC(C)(C)n1ncc2c(=O)n(CC(=O)Nc3ccc(Cl)cc3)cnc21,>57,-12.3%
Cc1cc(C(F)(F)F)nc(NCc2cccnc2)n1,>57,-8.4%
COCCn1c(=O)c(-c2cn(C)c3ccccc23)nc2cnc(OCc3ccccc3)nc21,>57,?
O=C1CC(c2ccco2)CC2=C1C=Nc1ccccc1N2 (configuration not stated),>57,?
COc1ccc(C2=NO[C@@H]3C(=O)N(c4cccc(C)c4C)C(=O)[C@H]23)cc1OC,>57,-4.8%
O=C(CCS(=O)(=O)c1ccc(Cl)cc1)OCC(=O)N1CCCCC1,?,-18.9%
COCCn1c(C)cc(C(=O)COC(=O)c2n[nH]c3ccccc23)c1C,>57,-12.2%
O=C(N1CCCC1)N1CCN(c2ncnc3c(-c4ccc(Cl)cc4)nsc23)CC1,>57,9.9%
O=C(O)c1ccn(Cn2cnc3ccccc32)n1,>57,-7.8%
Cc1occc1-c1nnc(SCC(=O)c2c[nH]c3ccccc23)n1C,>57,?
O=C1C2C3C=CC(C3)C2C(=O)N1c1n[nH]c(-c2cccnc2)n1 (configuration not stated),>57,-13.6%
O=C(O)CCC(=O)Nc1ccc(N2CCOCC2)cc1,>57,-2.1%
O=c1ccc(Oc2nc(N3CCCCC3)nc(N3CCCCC3)n2)n[nH]1,>57,5.4%
CC(=O)NC(CCS(C)(=O)=O)C(=O)Nc1ccc2c(c1)OCO2 (configuration not stated),>57,-0.7%
CCC(C)(C)NC(=O)C(c1cccc(OC)c1)N(C(=O)c1ccn[nH]1)c1cccc(OC)c1 (configuration not stated),>57,-11.3%
CCCCN(CCCC)CCCNC(=O)CC1Oc2ccc(C)cc2NC1=O (configuration not stated),>57,?
Cc1ccc(N2C(=O)C3C(C2=O)C(C(=O)c2ccc(Cl)cc2)N2CCCC32)cc1 (configuration not stated),>57,-0.1%
COc1ccc(-c2noc(-c3cccc(OC)c3OC)n2)cc1OC,>57,-15.5%
Cc1noc(C)c1C(=O)N1CCC2(CCN(Cc3cc(C(F)(F)F)cc(C(F)(F)F)c3)CC2)CC1,>57,0.7%
O=C(CCCC(=O)Nc1cccnc1)Nc1cccnc1,>57,10.6%
COCCn1c(SCC(=O)N2CCC(C)CC2)nc2ccccc2c1=O,>57,-14.3%
CNc1ncnc2c1ncn2[C@H]1C[C@H](OP(=O)(O)O)[C@H](COP(=O)(O)O)O1,>57,?
CCCOc1ccc(Br)cc1-c1cc(-c2ccc(Cl)cc2)[nH]c1-c1ccncc1,·,?
O=C(Nc1cccc2cccnc12)c1ccc(Br)o1,>57,-18.3%
CC(=O)Nc1nc(CCC(C)C)cc2c1c(=O)oc1ccccc12,?,-14.6%

Ordered by length of the SMILES (rising): some entries from above
Structure,Prx2 Sm inh,Anthrax LT inh
O=C(Nc1cccc2cccnc12)c1ccc(Br)o1,>57,-18.3%
CCCCN(CCCC)CCCNC(=O)CC1Oc2ccc(C)cc2NC1=O (configuration not stated),>57,?
CCCOc1ccc(Br)cc1-c1cc(-c2ccc(Cl)cc2)[nH]c1-c1ccncc1,·,?

(further entries)
Structure,Prx2 Sm inh,Anthrax LT inh
Cc1cccc(NC(=O)CCN2CCOCC2)c1,·,0.5%
CCOC(=O)Nc1sc2c(c1C#N)CCC(C)C2 (configuration not stated),>57,?
CCOc1nc(S(=O)(=O)c2ccc(C)cc2)c(Cl)s1,>57,-6.6%
[O-][n+]1onc2c1CCc1c-2nn(-c2ccccc2Cl)[n+]1[O-],>57,?
CC(=O)N1CCCc2cc(S(=O)(=O)NC(C(=O)NCc3ccc(C)cc3)C(C)C)ccc21 (configuration not stated),>57,4.6%
COc1cc(S(=O)(=O)NC2CCCCC2)ccc1Cl,>57,4.9%
CCn1c(C)nc2c(=O)oc3ccccc3c21,>57,?
CCc1nnc(NC(=O)c2cnccn2)s1,>57,-1.7%
COc1cc2c(C(=O)NCCCN3CC(C)CC(C)C3)cn(CC(C)C)c(=O)c2cc1OC (configuration not stated),>57,-0.9%
CCN(CC)CCNC(=O)Cn1nc(-c2ccccc2)c2ccccc2c1=O,>57,-0.3%
Cc1noc(C)c1COc1cccc(C(=O)OCCOc2ccc(F)cc2)c1,>57,-17.0%
COc1cccc(C2N(c3cccc(Cl)c3)C(=O)C3CCCN32)c1 (configuration not stated),>57,-7.7%
CC(=O)N1CCN(c2ccc(NCc3cccs3)cc2)CC1,>57,-2.6%
Cn1c(=O)c2c(nc(CN3CCC(Cc4ccccc4)CC3)n2CCN2CCOCC2)n(C)c1=O,>57,·
Cc1c(C(=O)NCc2cccnc2)oc2ccccc12,·,10.9%
O=C(O)CCCCCNS(=O)(=O)c1ccc(Cl)cc1,·,-2.1%
COC(=O)[C@H](Cc1ccccc1)NC(=O)C/C=C\[C@@H](C)[C@@H](CO)OC,·,-2.0%[8 µM]
O=C(c1csnn1)N1CCC2(CC1)CN(c1ccccn1)C2,>11.4,12.2%
CCCC(=O)c1cc(F)c(N2CCOCC2)cc1C,>57,-8.1%
CC1=C(C(N)=O)C(c2ccco2)C(C(N)=O)=C(C)N1,·,-5.1%
N#Cc1nc(COc2ccc(Cl)cc2)oc1NCc1ccc2c(c1)OCO2,>57,?
CCn1c(COc2cccc3ccccc23)nnc1SCC(N)=O,>57,-6.0%
COc1ccc(-c2nc3cnc(Nc4cccc(OC)c4)nc3n(C3CC3)c2=O)cc1,>57,?
CC(=O)NC(Cc1c[nH]c2ccccc12)C(=O)OCC(=O)Nc1cc(C)on1 (configuration not stated),>57,14.1%
CC(C)CN(C(=O)COC(=O)Cn1cnc2ccccc2c1=O)C1CCS(=O)(=O)C1 (configuration not stated),>57,-10.2%
CN(CC(=O)NCc1ccccn1)S(=O)(=O)c1ccc(Cl)cc1,·,0.6%
CCC[C@@H]1CC2=CC(=O)CC[C@]2(C)[C@@H]2CC[C@@]3(C)[C@H](CC[C@]3(O)CCC(=O)O)[C@H]12,>57,?
CC1=C(C)C(=O)C(CCCCC#CCCCC#CCO)=C(C)C1=O,>57,3.6%
Cc1cc2cc(CN(CCCO)S(=O)(=O)c3cccc4nsnc34)c(=O)[nH]c2cc1C,>57,-28.8%
O=C(NCc1cccnc1)c1cccc2c1C(=O)N(C1CCCCC1)C2,>57,3.4%
O=S(=O)(NC1CCN(Cc2ccccc2)CC1)c1cccc(S(=O)(=O)N2CCOCC2)c1,>57,-16.8%
O=C(CN(Cc1ccco1)C(=O)CNS(=O)(=O)c1ccccc1)NCc1ccccc1,>57,-8.0%
COc1ccccc1-n1c(SCC(=O)NC(C)(C)C)nc(O)cc1=O,>57,?
CCOC(=O)N1CCN(S(=O)(=O)c2cc(Br)cc3c2N(C(C)=O)C(C)C3)CC1 (configuration not stated),>57,-11.5%
CCOC(=O)c1nnc2cc(-c3ccccc3)nn2c1C,·,-15.8%
C=CCn1c(SCC2=C(C(=O)OCC)C(C)NC(=O)N2)nnc1C1CCCCC1 (configuration not stated),>57,-5.8%
COc1nc(N(c2ccccc2)c2ccccc2)nc(-n2ccnc2)n1,>57,-21.7%
CCCCCOC(=O)C1=C(C)NC(=O)NC1c1ccccc1OCC (configuration not stated),>57,?
COc1ccc(-c2cc3nc(-c4ccccc4)cc(N4CCC5(CC4)OCCO5)n3n2)cc1,>57,?
CCOC(=O)C1CCN(C(=O)CSc2ccccc2)CC1,>57,?
CC(C)NC(=O)NC(=O)COC(=O)Cc1ccsc1,>57,3.0%
ClCc1ccccc1,·,?
O=P(c1ccc2c(c1)OCCO2)(N1CCOCC1)N1CCOCC1,>57,4.7%
O=C(C1CCCN(S(=O)(=O)c2cccc3nsnc23)C1)N1CC=C(c2ccccc2)CC1 (configuration not stated),>57,17.4%
C[C@@H]1CC[C@H]2C(=O)NC[C@@H](O)CN2[C@@H]1c1ccc(Br)cc1,·,-5.1%[1.6 µM]
CN(C(=O)CSc1nnc(NC2CCCCC2)s1)C1CCS(=O)(=O)C1 (configuration not stated),>57,3.8%
Cc1cc(Cl)cc(C)c1OCCCCN1CCOCC1,>57,-3.7%
O=C(CSc1ncc(-c2ccc(F)cc2)n1Cc1ccco1)Nc1nccs1,>57,0.0%
CCN(CCCNC(=O)CNC(=O)Cn1cnc2ccccc2c1=O)c1cccc(C)c1,>57,?
CCN(CC)CCCNC(=O)c1cc(-c2ccc(Cl)c(Cl)c2)on1,>57,-15.1%

Next results follow.
Structure,Prx2 Sm inh,Anthrax LT inh
CC(C)OC(=O)CSc1ncnc2c1cnn2-c1ccccc1,>57,-8.2%
CCN(CC)c1ccc(NC(=O)CN2CCN(c3ccc(F)cc3)CC2)cc1,>57,-2.0%
N#Cc1c(N)n[nH]c1-c1cc2c([nH]1)CCCC2,>57,-16.3%
CCC(=O)Nc1c2c(nc3c1CCC3)CCCC2,>57,-2.5%
O=C(NC1CCCCCC1)C1CC(=O)N(Cc2ccccc2)C1 (configuration not stated),>57,-0.2%
COc1ccc(N2CCn3c2nc2c3c(=O)n(CCCc3ccccc3)c(=O)n2C)cc1,>57,?
O=c1[nH]c2cc3c(cc2cc1C(c1nnnn1C1CCCC1)N1CCSCC1)OCCO3 (configuration not stated),>57,-7.7%
COc1ccccc1N(C(=O)NCc1ccccc1)C1=NCC(C)S1 (configuration not stated),>57,?
CCCc1cc(=O)oc2cc(OCC(=O)N(C)C)c(Cl)cc12,>57,-5.5%
COc1nc(OC)nc(N2CCC(C(=O)NCC3CCCCC3)CC2)n1,>57,-13.4%

The closing 2 compounds of the part above lead into the next.
Structure,Prx2 Sm inh,Anthrax LT inh
CCCc1cc(=O)oc2cc(OCC(=O)N(C)C)c(Cl)cc12,>57,-5.5%
COc1nc(OC)nc(N2CCC(C(=O)NCC3CCCCC3)CC2)n1,>57,-13.4%
CC1CCN(C(=O)CSc2nnc(-c3cc4ccccc4cc3O)n2Cc2ccco2)CC1,>57,17.3%
COC(=O)C1=C(N)Oc2c(c(=O)oc3ccccc23)[C@]12C(=O)N(C)c1ccccc12,>57,?
COc1ccc(-n2c(Cc3cccn3C)nnc2SCC(=O)Nc2ccc(C)cc2C)cc1,>57,-9.3%
CN(CCc1ccccn1)C(=O)CCNC(=O)Cn1cnc2ccccc2c1=O,>57,2.8%
O=C(c1ccncc1)N1CCN(C(=O)c2cccc3ccccc23)CC1,>57,21.0%
C=C(C)Cn1c(Sc2nc3ccccc3[nH]2)nc2c1c(=O)[nH]c(=O)n2C,>57,-1.5%
CCC(=O)Nc1ccc(NC(=O)CN2CCCC(C)C2)c(Cl)c1 (configuration not stated),>57,-3.9%
CC1C2C(C)N(C)C(=O)N(C)C2N(C)C(=O)N1C (configuration not stated),>57,-0.7%
COP(=O)(OC)O/C(=C\Cl)c1cc(Cl)c(Cl)cc1Cl,·,-10.1%
CCN1CC=C2C(C1)C(c1ccc(Cl)s1)C(C#N)=C(N)C2(C#N)C#N (configuration not stated),>57,?
CCOC(=O)C1C(=O)N(C)C2(C)CC1c1ccccc1O2 (configuration not stated),>57,2.5%
CCC(Sc1nc(-c2ccccc2)c(C#N)c(=O)[nH]1)C(=O)Nc1cc(C)on1 (configuration not stated),>57,-28.0%
CC(C)COC(=O)NCC12C=CC(O1)C1C(=O)N(c3ccc(Cl)cc3)C(=O)C12 (configuration not stated),>57,-2.4%
CC1CCCO1 (configuration not stated),·,?
CCOC(=O)Nc1ccc2c(c1)N(C(=O)N(C)C)c1ccccc1CC2,·,?
CSc1nsc(SC)c1NC(=O)OCC1CCCO1 (configuration not stated),>57,?
Cc1onc(-c2ccccc2)c1C(=O)N1CCC2(CC1)OCCO2,>57,-7.5%
Cc1cccc2cc(C(c3nnnn3C(C)(C)C)N3CCN(C(=O)c4ccco4)CC3)c(=O)[nH]c12 (configuration not stated),>57,-6.7%
CC1(C)C(c2ccccc2)=NC(c2ccccc2)N1O (configuration not stated),·,-2.8%
CCCCOc1cccc(NC(=O)CSc2nccn2C)c1,·,-3.9%
COc1cccc(-n2c(CNC(=O)OC(C)(C)C)n[nH]c2=S)c1,>57,-6.0%
O=C(OCc1cc2ccccc2[nH]c1=O)C1CCCO1 (configuration not stated),>57,11.4%
O=C(Nc1ccc2ccccc2c1)N1CCN(c2ncccc2C(F)(F)F)CC1,>57,?

Screening data as filed in PubChem BioAssay.
